# D2 PAM = positive allosteric modulators of human D2 dopamine receptor; DiscoveRx D2 beta-arrestin cells, luminescence, 90 min; 100% = 57 uM dopamine signal; P14416; potentiation, % (test concentration not listed); AID 624464; 0.23% of 360,000 active; active = potentiation of 50% or more; inconclusive = 30% to 50%; inactive = 30% or less;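 also: compound concentration not given in the record; tested on top of an EC20 dose of dopamine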
#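 D2 cells co-treated with compound plus 50 nM dopamine (EC20) for 90 min at 37 deg C to detect potentiation. Beta-arrestin recruitment was read as enzyme-fragment luminescence after 1 h at ambient temperature. Full response was set by 57 uM dopamine.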
# gsp antagonist = antagonizes gsp, the McCune-Albright syndrome mutation. 0.4% of 340,000 active. gsp-mutant cells, cAMP HTRF, 30 min; control for the full effect not named in the record. Potency, µM (highest dose often 76.9 µM), for the others: at the top dose activity change, negative = inhibition, hits mostly inhibitors; active = falling curve of any shape with a large fitted effect; inconclusive = falling curve, mostly with a smaller effect; inactive = flat or rising curve; cell line not stated here;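 also: intracellular cAMP measured with PDE inhibitor Ro 20-1724 present during compound exposure; potency is read from the fitted curve at half-maximal effect; % is scaled to controls: 0 for no effect and ±100 for the full control effect; nearly all actives have a fitted effect of over 65% in size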
#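 HTRF cAMP read-out (cAMP-d2 plus anti-cAMP antibody-K in lysis buffer, 30 min RT). Before lysis, cells are exposed to compounds with […] for 30 min at 37C in DPBS containing Ca/Mg, BSA and Tween 20.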
# D2 ag = activates the human D2 dopamine receptor. DiscoveRx PathHunter D2 beta-arrestin, luminescence, 90 min; 100% = 57 uM dopamine signal. P14416. 0.084% of 360,000 active. activation, % (test concentration not listed); in the data active = activation above about 40%; inconclusive = about 15% to 40%; inactive = below about 15%; also: compound concentration not given in the record; the text of the record calls up to 30% inactive
#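 Agonist mode: compounds alone added to overnight-plated D2 PathHunter cells for 90 min at 37 C, with 57 uM final dopamine (EC100) defining full response. Beta-arrestin recruitment detected by chemiluminescent reagent, read after 1 h at ambient temperature.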
# Six1-Eya2 blk = inhibitors of human Six1/Eya2 interaction. Q15475+O00167. AlphaScreen GST-Six1/His-Eya2 binding, biochemical; active compounds read low; control for the full effect not named in the record. activity change, % (no concentration beside the values). 0.56% of 360,000 active. AID 651725; in the data active = activity change below about -65%; inconclusive = about -30% to -65%; inactive = above about -30%; also: % is scaled to controls: 0 for no effect and ±100 for the full control effect
# Target sequence (O00167 whole entry, looked up): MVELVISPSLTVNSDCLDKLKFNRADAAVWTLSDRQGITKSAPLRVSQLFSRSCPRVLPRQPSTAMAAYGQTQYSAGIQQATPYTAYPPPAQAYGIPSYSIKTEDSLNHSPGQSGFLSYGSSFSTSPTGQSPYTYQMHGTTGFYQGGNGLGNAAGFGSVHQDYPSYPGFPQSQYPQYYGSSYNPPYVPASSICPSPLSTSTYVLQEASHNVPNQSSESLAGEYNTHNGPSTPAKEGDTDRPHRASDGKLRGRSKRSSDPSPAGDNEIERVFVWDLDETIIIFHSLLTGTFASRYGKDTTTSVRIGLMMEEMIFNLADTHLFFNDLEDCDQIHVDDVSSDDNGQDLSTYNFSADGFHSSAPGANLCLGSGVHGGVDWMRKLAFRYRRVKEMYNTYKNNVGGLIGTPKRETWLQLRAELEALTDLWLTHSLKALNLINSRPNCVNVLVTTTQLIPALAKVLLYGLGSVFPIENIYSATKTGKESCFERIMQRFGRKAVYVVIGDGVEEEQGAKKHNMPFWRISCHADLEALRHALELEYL
# Target sequence (Q15475 whole entry, looked up): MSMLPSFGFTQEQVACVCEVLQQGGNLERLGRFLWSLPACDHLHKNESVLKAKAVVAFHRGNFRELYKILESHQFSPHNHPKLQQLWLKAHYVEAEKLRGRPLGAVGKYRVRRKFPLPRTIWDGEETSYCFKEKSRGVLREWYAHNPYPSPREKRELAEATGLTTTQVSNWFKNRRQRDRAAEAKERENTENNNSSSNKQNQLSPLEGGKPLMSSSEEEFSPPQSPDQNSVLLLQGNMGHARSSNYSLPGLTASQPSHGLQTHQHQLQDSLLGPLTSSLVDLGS
#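 AlphaScreen luminescence read after one hour at 37 °C in darkness. Pin-transferred compounds met GST-Six1 and His-Eya2 protein (5X stock 250 nM/500 nM) plus glutathione donor and Ni-chelate acceptor beads (5X, 50 ug/mL).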
# CtBP-E1A inh = blocks the CtBP interaction with E1A; 0.49% of 340,000 active; AlphaScreen GST-E1A/His-CtBP binding, 1536-well; active compounds read low; control for the full effect not named in the record; activity change, % (concentration not given with the values); AID 651724; in the data active means activity change below about -65%; inconclusive means about -30% to -65%; inactive means above about -30%; also: % is scaled to controls: 0 for no effect and ±100 for the full control effect
#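 GST-E1A and His-tagged CtBP (125 nM each as 5X stock) were preincubated with pin-transferred compound for 2 h at 37 °C in the dark, then glutathione donor and nickel acceptor beads were added for 1 h before AlphaScreen reading.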
# gsp ag = agonists of gsp mutant (McCune-Albright syndrome) | gsp mutant cells, cAMP HTRF, 30 min; control for the full effect not named in the record | Potency, µM (titrated, usually from 76.9 µM), for inactives: top-dose activation (cAMP increase), usual class: activators | 0.13% of 340,000 active | AID 624287; active = well fitted activation curve with a large enough effect; inconclusive = small, poorly fitted or top-dose-only effect, or another doubt; inactive = no such curve, though single readings can be large or run the other way; cell line not stated here;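 also: phosphodiesterase inhibitor Ro 20-1724 added with compounds to block cAMP breakdown; potency is read from the fitted curve at half-maximal effect; nearly all actives have a fitted effect of over 60% in size; about a fifth of the inactives were tested at one dose only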
#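 Cells in DMEM/10% FBS with G418 were pretreated with compounds in DMSO plus […] (300 uM stock) for 30 min at 37C. cAMP was measured by HTRF (cAMP-d2 plus anti-cAMP antibody-K) after 30 min at room temperature.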
# An asterisk follows results filed as active; ? = inconclusive; . = not tested or not shown; [ ] = remark or other dose.
SMILES,D2 PAM,gsp antagonist,D2 ag,Six1-Eya2 blk,CtBP-E1A inh,gsp ag
Cc1cc(C)c(C(=O)CSc2n[nH]c(=O)n2C2CC2)cc1C,?,-28.6%,-0.9,-1.3,-4.0,-6.4%
CCc1ccccc1NC(=O)CNC(=O)CCc1nc2sc3c(c2c(=O)[nH]1)CCCC3,-22.9,-11.7%,-6.0,-9.4,2.2,23.0%
COCCOC(=O)C1=C(C)NC(=O)NC1c1cccc2ccccc12 (stereo not given),-0.7,-0.1%,1.9,-4.6,.,4.2%
COC(=O)c1ccc2c(c1)NC(=O)c1ccccc1S2,5.4,-1.8%,-2.0,5.2,4.3,3.6%
COC(=O)c1c(NC(=S)Nc2cc(OC)c(Cl)cc2OC)sc2c1CCCCC2,-8.0,-3.4%,-13.1,-16.9,-1.8,3.8%
CCOC(=O)CNC(=O)C(Cc1ccccc1)NS(=O)(=O)c1ccc2c(c1)CCC(=O)N2 (stereo not given),-2.2,1.0%,1.0,4.6,10.0,9.6%
O=C(Nc1ccccc1)c1cccc(S(=O)(=O)NC2CCCC2)c1,-4.7,-10.4%,-2.9,-5.3,-1.5,?
COc1ccc(Cl)cc1NC(=O)c1cc(-c2cc(C)ccc2O)n[nH]1,-0.4,5.4%,4.3,0.3,5.9,11.4%[15.4 µM]
O=C(NCc1ccncc1)C(=O)NCC1OCCN1S(=O)(=O)c1cc(F)ccc1F (stereo not given),-7.2,12.9%,-3.5,1.0,2.5,-6.3%[15.4 µM]
O=C(COC(=O)C1CC2C=CC1C2)Nc1cccc(S(=O)(=O)N2CCCCC2)c1 (stereo not given),0.2,-14.5%,0.1,-0.6,5.0,-0.2%[15.4 µM]
Cc1cc(C)cc(N2C(=O)CSC2c2ccccn2)c1 (stereo not given),1.0,8.7%,-0.3,6.3,10.5,6.1%[15.4 µM]
O=C(CCc1c[nH]c2ccccc12)NCC1COc2ccccc2O1 (stereo not given),-26.3,10.5%,-7.0,-11.5,-0.8,9.6%[15.4 µM]
O=C(Nc1nc(-c2ccncc2)cs1)C1COc2ccccc2O1 (stereo not given),2.8,-14.5%,4.1,0.2,-24.8,-19.8%
O=C(Nc1ccc(C(=O)O)cc1)/C(=C\c1ccco1)NC(=O)c1ccccc1Cl,-3.0,3.3%,-0.9,-6.0,1.7,22.3%
O=C(CSc1ccccn1)N/N=C/c1c[nH]c2ccccc12,-9.1,-1.0%,-2.3,-13.5,-10.4,-0.7%
O=C(CSc1ccc2c(c1)OCCO2)NC(=O)NC1CCCC1,1.5,-11.7%,-3.3,-1.3,-1.7,-2.6%
CN(CC(=O)Nc1cccc(F)c1)C(=O)c1ccc(COc2ccccc2)cc1,-24.8,?,2.6,-70.3*,-9.4,-13.1%[15.4 µM]
Cc1cc(NC(=O)c2ccc(Cl)cc2)ccc1NC(=O)c1ccccc1Cl,-8.6,13.2%,3.6,19.5,-16.9,-4.1%[15.4 µM]
O=C(NCc1ccco1)C1CCN(C(=O)c2cc3sccc3n2Cc2ccc(Cl)cc2)CC1,-13.5,?,-0.8,-15.7,-8.0,-58.0%[inhibitor]
Cc1ccccc1-n1nnnc1SCC(=O)c1c(N)n(C)c(=O)n(C)c1=O,-2.2,12.7%,0.8,0.4,4.0,12.7%
Cc1ccc(CNC(=O)CCC2CCCN(C(=O)c3ccc4c(c3)OCO4)C2)o1 (stereo not given),-1.6,-3.1%,-2.7,8.0,-0.1,0.1%[15.4 µM]
Nc1nc(CN2CCN(c3ccccc3F)CC2)nc(Nc2ccc3c(c2)OCCO3)n1,18.2,2.2%,?,0.3,-4.9,6.4%
COc1ccc(S(=O)(=O)N2CCC(NC(=O)c3cccnc3)CC2)cc1,-6.8,1.0%,-0.8,4.7,0.5,9.9%
COc1ccc(OC)c(/C=C/C(=O)N2CCN(S(=O)(=O)c3cc(C)ccc3C)CC2)c1,0.1,?,2.6,18.7,23.3,26.1%
CC(/C=N/NC(=O)Cn1cnc2c1c(=O)n(C)c(=O)n2C)=C\c1ccccc1,-10.2,0.2%,-1.5,-5.2,3.5,?
CC(C)(C)NC(=O)C(=O)NNC(=O)c1cccc(F)c1,-3.2,-14.2%,1.4,-20.7,?,-40.9%[15.4 µM]
COCCn1c(SCc2nc3scc(-c4ccc(Cl)cc4)c3c(=O)[nH]2)nnc1-c1cccc(C)c1,-2.3,0.7%,4.5,-3.9,-5.7,24.5%
[2H]C([2H])(CCOS(N)(=O)=O)c1ccccc1,-3.1,12.8%,-4.3,2.8,3.1,.
c1ccc2c(c1)-c1ccccc1C2N1CCOCC1,-8.7,-7.3%,-0.6,8.4,35.1,-20.6%
CC(C)CC1C(=O)N(Cc2cn(CCC3OCCCO3)nn2)CCS(=O)(=O)N1Cc1ccc(-c2ccccc2)cc1 (stereo not given),-4.3,.,-0.8,-6.0,-15.1,-54.0%

# Random excerpt: 4 records from the list
SMILES,D2 PAM,gsp antagonist,D2 ag,Six1-Eya2 blk,CtBP-E1A inh,gsp ag
COc1ccc(OC)c(/C=C/C(=O)N2CCN(S(=O)(=O)c3cc(C)ccc3C)CC2)c1,0.1,?,2.6,18.7,23.3,26.1%
c1ccc2c(c1)-c1ccccc1C2N1CCOCC1,-8.7,-7.3%,-0.6,8.4,35.1,-20.6%
CC(C)(C)NC(=O)C(=O)NNC(=O)c1cccc(F)c1,-3.2,-14.2%,1.4,-20.7,?,-40.9%[15.4 µM]
[2H]C([2H])(CCOS(N)(=O)=O)c1ccccc1,-3.1,12.8%,-4.3,2.8,3.1,.

# Going on with the list.
SMILES,D2 PAM,gsp antagonist,D2 ag,Six1-Eya2 blk,CtBP-E1A inh,gsp ag
Nn1c(Cc2ccccc2F)nnc1SCC(=O)Nc1cccc(S(=O)(=O)NC2=NCCCCC2)c1,2.9,9.5%,0.8,-3.7,-1.9,28.8%
CCOC(=O)c1ccc2c(c1)N(CC(=O)N1CCCCC1)C(=O)C(C)(C)O2,-2.6,-3.8%,-1.8,0.1,6.2,-2.2%
COc1ccc(/C=C2\CCC(C3CCCC3)C2=O)c(OC)c1OC (stereo not given),-22.6,6.8%,-1.4,2.7,-24.6,8.7%
c1ccc2c(c1)CC1(CCCC1)N=C2N1CCOCC1,-8.1,13.8%,-4.7,1.7,4.1,?
Fc1cccc(CSc2nnc3ccc(-c4ccncc4)nn23)c1,-7.5,-11.9%,0.1,-14.5,-20.9,?
CC(CNS(=O)(=O)c1ccccc1)(c1ccccc1)N1CCOCC1 (stereo not given),4.5,-20.3%,-3.1,0.5,.,5.3%
Cc1cc(=S)cc(C)n1CCO,-5.5,-4.7%,2.0,3.7,6.0,-67.7%[inhibitor]
Cc1ccc(-c2noc(C3CCCN(C(=O)c4ccccc4Br)C3)n2)cc1 (stereo not given),-26.1,44.7µM*,-5.5,-0.4,.,-13.8%
COc1ccccc1/C=C/CN1CC(C)OC(C)C1 (stereo not given),-20.1,8.1%,-3.7,-4.3,-0.7,3.8%
CC(OC(=O)c1cc2ccccc2[nH]1)C(=O)N(C)c1ccccc1 (stereo not given),2.1,7.2%,-1.1,0.0,0.2,12.7%
COc1cccc2c1OC[C@@H](CO)[C@H]2N(C)C(=O)Nc1ccc(Cl)cc1Cl,0.5,-9.9%,1.0,-8.8,-26.9,-4.7%
CN(C(=O)CCc1nnc(CCCCc2ccccc2)o1)C1CCOCC1,-2.7,0.5%,-3.9,-2.4,.,-0.1%
COc1cc(CN(C2CCCCC2)S(=O)(=O)c2ccc(S(=O)(=O)N(C)C3CCCCC3)cc2)cc(OC)c1OC,-14.0,3.7%,1.6,-0.1,-6.3,9.2%
CN(CC(=O)O/N=C(\N)c1ccc([N+](=O)[O-])cc1)S(=O)(=O)c1ccc2ccccc2c1,13.2,0.2%,6.1,-23.2,-1.2,6.8%
Cc1cc(C(=O)N2CCCC(C(=O)c3ccc4ccccc4c3)C2)n(C)n1 (stereo not given),-6.1,?,0.0,-7.9,2.8,-3.7%
CC1(N(O)C=C2C=CC(=O)C=C2)CCCCC1=O (stereo not given),-0.3,-3.1%,-3.2,-0.8,2.8,8.5%
Cc1cccc(C(=O)N[C@H](C(=O)Nc2cc(S(=O)(=O)N3CCCCC3)ccc2C)C(C)C)c1,-15.9,3.2%,-4.2,6.0,-0.8,-21.0%
CCC(C)N(C(=O)c1csnn1)C(C(=O)NCc1ccc(F)cc1)c1ccco1 (stereo not given),-11.2,-10.9%,-2.5,-0.7,3.9,6.5%
O=C(O)COc1ccccc1/C=N/NC(=O)c1cccc(S(=O)(=O)N2CCOCC2)c1,3.2,9.9%,-3.8,2.4,-6.3,-9.6%[15.4 µM]
CCN(CC)CCNC(=O)c1cc2c(-c3cccc(OC)c3)nn(C)c2s1,-10.4,9.9%,1.1,-19.9,-18.4,?
Cc1nn(C(C)C(=O)NCC2CCCO2)c(=O)c2cc3occc3n12 (stereo not given),-4.7,13.1%,0.9,9.3,8.6,?
COc1ccc(N(CC(=O)NCC2CCCO2)C(=O)CCC(=O)Nc2cc(C)on2)cc1OC (stereo not given),-0.3,12.9%,0.8,-2.0,-1.3,-8.8%

# 5 of the entries above in order of their number in CtBP-E1A inh, smallest number first.
SMILES,D2 PAM,gsp antagonist,D2 ag,Six1-Eya2 blk,CtBP-E1A inh,gsp ag
CCN(CC)CCNC(=O)c1cc2c(-c3cccc(OC)c3)nn(C)c2s1,-10.4,9.9%,1.1,-19.9,-18.4,?
O=C(O)COc1ccccc1/C=N/NC(=O)c1cccc(S(=O)(=O)N2CCOCC2)c1,3.2,9.9%,-3.8,2.4,-6.3,-9.6%[15.4 µM]
COc1ccc(N(CC(=O)NCC2CCCO2)C(=O)CCC(=O)Nc2cc(C)on2)cc1OC (stereo not given),-0.3,12.9%,0.8,-2.0,-1.3,-8.8%
CC1(N(O)C=C2C=CC(=O)C=C2)CCCCC1=O (stereo not given),-0.3,-3.1%,-3.2,-0.8,2.8,8.5%
CCC(C)N(C(=O)c1csnn1)C(C(=O)NCc1ccc(F)cc1)c1ccco1 (stereo not given),-11.2,-10.9%,-2.5,-0.7,3.9,6.5%
